# BJeLR lethal = kills HRASV12-expressing BJeLR cells | inhibition, % (concentration not given with the values) | hit rate 0.17% among 300,000 | BJeLR (HRASV12) viability, CellTiter-Glo ATP luminescence, 48 h; reference of the scale not given here;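 active = replicate mean above 50%; inconclusive = above 50% but judged a plate artefact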;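 note: 50 nL library stock added to about 25 µL; numbers are from one replicate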
# PrP 5UTR inh = suppresses PrP 5' UTR mRNA reporter expression. cell-based PrP 5' UTR mRNA reporter, plate reader. inhibition, % (no concentration beside the values). hit rate 0.35% among 340,000. AID 488862;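 active = every replicate at 50% or more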;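 note: 0 = median of the neutral control wells; tested in H4 reporter cells; numbers are from one replicate; inactives centre near -14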
# Sa ugtP lethal = growth inhibition of S. aureus ugtP deletion strain; AID 1259309; S. aureus RN4220 ugtP deletion, OD600 growth, 16 h; some inactives read as strong as hits; hit rate 0.54% among 330,000; growth inhibition, % (concentration not given with the values);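 active = z-score under -3 and OD600 up to 0.15 on both plates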;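 note: plate controls were untreated wells for no effect and antibiotic for full effect; wells of about 80 µL received 100 nL stock; the first replicate is given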
# Mtb hypoxia inh = Mtb hypoxia fluorescent reporter inhibition; M. tuberculosis hypoxia-regulated fluorescent reporter, fluorescence; fluorescence inhibition, % (no concentration beside the values); hit rate 0.1% among 300,000; AID 1159583;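 active = 35 to 45% if threefold the growth effect, above 45% if 1.5-fold the growth effect; inactive = the rest, general growth blockers included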;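 note: wells of about 50 µL received 100 nL stock; 0% = vehicle wells and 100% = reference inhibitor wells; whole bacteria with a GFP reporter of the hypoxia response; strong numbers were not always called active; many hits fall short of the cut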
# Bead autofluor = counter-screen for toxin protease inhibitors: compound fluorescence. compound autofluorescence counterscreen, microsphere flow cytometry; hits give high values. fluorescence intensity (test concentration not listed). hit rate 3.1% among 360,000;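 active = at least 3 SD above the mean of all compounds, about 16000 in these data; inconclusive = too few beads counted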;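 note: 100 nL of 1 mM stock went into each well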
# RN4220 kill = S. aureus RN4220 growth inhibition; AID 1259311; OD600, 16 h; inhibition, % (test concentration not listed); hit rate 0.33% among 330,000;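 active = z-score of -3 or lower and OD600 up to 0.18 on both plates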;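 note: plate controls were untreated cells for no effect and reference antibiotic for full effect; stock transfer was 100 nL into about 80 µL; one replicate is shown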
# Mtb hypoxia inh growth = second read-out of Mtb hypoxia inh, no call of its own (marks repeat the call); growth inhibition, %; measured here: M. tuberculosis growth (absorbance);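 0% = vehicle and 100% = reference antibiotic; read after six days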
# The depositor's hits bear a star; ? = inconclusive; / = not tested or not shown.
# Order of results: BJeLR lethal | Sa ugtP lethal | Bead autofluor | RN4220 kill | Mtb hypoxia inh | Mtb hypoxia inh growth | PrP 5UTR inh
1) O=C(NC(=S)N1CCN(c2ccc([N+](=O)[O-])cc2)CC1)c1ccccc1Cl
→ -1 | -5 | 2059 | 14 | 1 | -1 | -13
2) CCOC(=O)Cn1c(S(=O)(=O)Cc2ccc(F)cc2)nc(-c2ccccc2)c1-c1ccccc1
→ 10 | 26 | 16161* | -0.4 | 1 | 1 | -14
3) COc1cc(NC(=O)CCC(=O)O)nc(OC)n1
→ 17 | 3 | 10801 | 3.9 | 7 | 1 | -17
4) CCN(C(=O)COc1cc(=O)n(CC)c2ccccc12)c1cccc(Cl)c1
→ -3 | -14 | 20694* | 11 | 2 | 11 | -9
5) Cc1c(C)n(C(=O)CSc2ncn[nH]2)c2ccccc12
→ -2 | -6 | 3236 | 10 | 0 | 4 | -16
6) O=C(NCc1n[nH]c(=S)n1-c1ccc(Br)cc1)c1ccc(S(=O)(=O)N2CCCCC2)cc1
→ -13 | 9 | 3963 | 4.5 | 6 | -6 | -27
7) Cc1ccc(S(=O)(=O)N2CCN(CC(=O)N/N=C\C(Cl)=C\c3ccccc3)CC2)cc1
→ -5 | / | 2316 | / | / | / | -9
8) COC(=O)c1cccc(NC(=O)COC(=O)CSc2nc(C)cc(C)n2)c1
→ 0 | 2 | 11374 | 6.1 | 6 | 2 | -15
9) CCOC(=O)c1c(Nc2ccccc2)sc(/C=C2\C=Nc3ccccc32)c1O
→ 0 | -20 | 17134* | 0.6 | 8 | 4 | -27
10) Clc1cccc(-c2ccc(C=Nc3ccc(N4CCOCC4)cc3)o2)c1Cl
→ -1 | -6 | 4463 | 0.0 | 4 | 1 | -10
11) CC1CN(C(=O)COc2ccc3c(-c4ccccc4)cc(=O)oc3c2)CC(C)O1 (centres undefined)
→ / | -2 | 6726 | 2.2 | -2 | -2 | -20
12) O=C(c1cccs1)N1CCN(S(=O)(=O)c2cccs2)CC1
→ 2 | 9 | 4228 | 2.7 | 2 | 7 | -18
13) CCOC(=O)CN(C(=O)CSc1nnc(C)n1-c1ccccc1)c1ccccc1
→ -2 | -1 | 7923 | 0.3 | -2 | -5 | -16
14) CCOC(=O)C(CC)C(C)=NNC(=O)c1ccc([N+](=O)[O-])cc1 (centres undefined)
→ / | -2 | / | 5.1 | 1 | 1 | /
15) CC(N)C(=O)OC(C)(C)Cc1ccc(Cl)cc1 (centres undefined)
→ / | 1 | 4204 | 0.8 | 8 | 13 | 4
16) O=C(NC(=S)NCCN1CCOCC1)c1ccccc1Cl
→ -15 | 6 | 3561 | 1.0 | / | / | -4
17) Cc1cc(C(=O)NCCC(c2ccccc2)c2ccccc2)c(C)o1
→ 10 | 22 | 2590 | -3.2 | / | / | -27
18) CN1CCN(c2ccc(CNC(=O)c3ccc4c(c3)OCCO4)cc2)CC1
→ 9 | 6 | 4531 | -1.5 | 0 | -17 | -28
19) CN(C)C(=O)c1cc(C(=O)c2ccc(Cl)cc2Cl)c[nH]1
→ -3 | 3 | 4096 | 1.2 | 4 | 8 | -41
20) CC(=O)NC(Cc1ccccc1)c1ccc2c(c1)OCCCO2 (centres undefined)
→ -2 | 6 | 2522 | -1.0 | -5 | -2 | -42
21) Cc1ccc(NC(=O)N2CCCC2C(=O)Nc2nnc(C(C)C)s2)cc1 (centres undefined)
→ -8 | 2 | 5222 | 1.9 | 11 | 2 | -32
22) CCc1nn2c(=O)cc(COc3ccc(/C=C4\C(=N)N5N=C(CC(C)C)SC5=NC4=O)cc3)nc2s1
→ -2 | 7 | / | 2.6 | -2 | 1 | /
23) C=C1C(=O)O[C@H]2[C@H]1[C@H](OC(=O)CC(=O)O[C@@H]1C[C@@H](C)[C@@H]3C=CC(=O)[C@@]3(C)[C@H]3OC(=O)C(=C)[C@H]13)C[C@@H](C)[C@H]1C=CC(=O)[C@]12C
→ 0 | / | 4131 | / | / | / | -3
24) CCOc1ccc(C(=O)NCC(=O)OCCCOC(=O)CNC(=O)c2ccc(OCC)cc2)cc1
→ 7 | 2 | 5908 | 3.6 | 3 | -2 | -22
25) Cc1ccc(S(=O)(=O)n2c([N+](=O)[O-])cnc2C)c(C)c1C
→ -10 | 8 | 2004 | 6.8 | 3 | -3 | -19
26) COc1cccc(OC)c1OCCCOc1ccc(C)cc1Br
→ -4 | 22 | 2316 | 6.0 | -1 | -2 | -25
27) COc1cccc(C(=O)Nc2ccc(NC(=O)Cc3ccccc3)cc2)c1
→ -7 | -4 | 3789 | 1.9 | -2 | -11 | -1
28) COc1cccc(-c2ccc3ncnc(NCc4cccc(C)c4)c3c2)c1
→ / | -9 | 4168 | -15 | 4 | 3 | -18
29) O=C(c1cccs1)N1CCCC(c2nc3c(nnn3Cc3c(Cl)cccc3Cl)c(=O)[nH]2)C1 (centres undefined)
→ -10 | -7 | 4548 | -0.2 | 3 | 3 | -10
30) c1ccc(CCN=C2CCCc3c2[nH]c2ccccc32)cc1
→ 3 | 1 | 3568 | 6.0 | -4 | 1 | -17
31) Cc1ccc(S(=O)(=O)NC2CCC(C(=O)O)CC2)cc1 (centres undefined)
→ -6 | 9 | 17170* | 0.7 | 5 | -3 | -21
32) Cc1nc(-c2ccccc2)nc(-c2ccccc2)n1
→ 8 | 3 | 3117 | 3.0 | 7 | 10 | -20
33) O=C(CSc1nnc(Nc2ccccc2F)s1)NCC1CCCO1 (centres undefined)
→ / | 3 | 2796 | 3.5 | 8 | 9 | -27
34) C/C(CC(=O)NCc1ccco1)=N\NC(=O)CC#N
→ -2 | / | 2664 | / | / | / | -1
35) CCN(CC(=O)NCCCN1CCOCC1)S(=O)(=O)c1cc(Cl)ccc1Cl
→ -2 | 1 | 5783 | -3.1 | -8 | 5 | -26
36) Cc1cc(Br)ccc1NC(=O)c1ccc(-n2cncn2)c([N+](=O)[O-])c1
→ 3 | 4 | 6289 | -0.8 | -1 | 14 | -5
37) COc1cc2ccccc2cc1C(=O)Nc1ccc2oc(=O)ccc2c1
→ -3 | -3 | 4369 | 0.0 | -6 | 1 | -22
38) O=C(Cn1nnc(-c2ccccc2NC(=O)c2cccs2)n1)Nc1ccccc1
→ 2 | -16 | 3183 | 6.7 | 7 | 8 | 3
39) O=C1NC(C(=O)O)=CC(c2cccc(Cl)c2Cl)N1 (centres undefined)
→ / | -4 | 4461 | 2.8 | 4 | 4 | 0
40) COc1cc(NC(=O)C2C3CCC(O3)C2C(=O)O)cc(OC)c1 (centres undefined)
→ 5 | -4 | 4229 | 0.3 | -13 | 9 | -2
41) O=C(c1cnn2c(C(F)F)cc(-c3ccccc3)nc12)N1CCCCC1c1cccnc1 (centres undefined)
→ -10 | -1 | 4576 | -0.6 | 9 | 9 | -9
42) Cc1ccc(Nc2nc(=O)c3cccnc3s2)c(Br)c1
→ 21 | 3 | 3874 | 3.7 | 12 | 0 | -16
43) CCCCCCSc1ccc(C2C3C(=O)N(CC)C(=O)C3[C@]3(C(=O)OC)CCCCN23)cc1 (some centres undefined)
→ / | 2 | / | -0.9 | 12 | -1 | /
44) c1csc(-c2nnc(N3CCCCCC3)c3ccccc23)c1
→ / | -14 | 2555 | -0.5 | 11 | 12 | -5
45) CCCCC(=O)Nc1cccn2ncnc12
→ -2 | -8 | 4544 | -1.3 | -3 | 13 | -9
46) Cc1cnc(C(=O)OCc2c(C)cc(C(C)(C)C)cc2C)cn1
→ 3 | -2 | 5346 | 9.1 | -9 | -3 | -26
47) CC1(NC(=O)Cc2c(F)cccc2Cl)CCS(=O)(=O)C1 (centres undefined)
→ / | 4 | / | 8.7 | 4 | 1 | -24
48) COc1ccc(OC)c(NS(=O)(=O)c2cccc3cccnc23)c1
→ -7 | 0 | 4230 | 0.7 | 6 | -6 | -15
49) COC(=O)[C@@H]1C[C@@H]2CC[C@@H](O)C[C@@H]2N1Cc1ccc(N2CCN(C)CC2)cc1
→ -15 | / | 4185 | / | / | / | -28
50) Cc1ccc(C(=O)OCC(=O)Nc2ccc3c(c2)OCO3)cc1S(=O)(=O)N1CCOCC1
→ -2 | 1 | / | 2.8 | / | / | -13
51) CCOc1cc(C2C(C(=O)OC)=CN(Cc3ccc(Cl)cc3)C=C2C(=O)OC)ccc1O
→ 0 | -9 | 3776 | -0.9 | 4 | -3 | -19
52) c1ccc2c(c1)CCN(CCCNc1nc3ccccc3n3cnnc13)C2
→ / | 6 | 5455 | 2.6 | 8 | 4 | -14
53) CCN(C(=O)COC(=O)CCn1c(C)csc1=O)c1c(N)n(Cc2ccccc2)c(=O)[nH]c1=O
→ / | 8 | 3636 | 2.4 | 3 | 3 | -5
54) COc1ccc(OC)c(S(=O)(=O)N2CCN(C)CC2c2ccccc2)c1 (centres undefined)
→ / | 4 | 3824 | 7.3 | 11 | 11 | -17
55) Cc1ccc(OCCC(=O)OCC(=O)NCc2ccccc2)cc1
→ -3 | 1 | ? | 2.1 | -4 | 4 | -8
56) CCn1c(SCC(=O)N2CCCC2)nc2c(c1=O)SCC2
→ -10 | 9 | 5928 | 1.4 | 0 | -2 | -26
57) COC(=O)C1=C(c2ccc(S(C)(=O)=O)cc2)C[C@@H]2CC[C@H]1N2C(=O)NCCS(C)=O (some centres undefined)
→ -3 | / | 3569 | / | / | / | -11
58) COC(=O)c1c(C)[nH]c(O)c1C=Nc1ccc(C(C)C)cc1
→ 0 | / | 4637 | / | / | / | -46
59) CCn1c(SCC(=O)Nc2ccccc2N2CCCCC2)nc2c1c(=O)n(C)c(=O)n2C
→ 0 | 0 | 5675 | -5.4 | -3 | 9 | 1
60) Cc1ccc(C(=O)NCCCNC(=O)c2ccccn2)cc1
→ 4 | 5 | 6174 | 1.8 | 4 | 12 | -64

# Continued.
# Order of results: BJeLR lethal | Sa ugtP lethal | Bead autofluor | RN4220 kill | Mtb hypoxia inh | Mtb hypoxia inh growth | PrP 5UTR inh
61) O=c1[nH]c(=S)n(-c2ccc(Cl)cc2)c(O)c1C=Nc1ccc(N2CCOCC2)cc1
→ 3 | 1 | 2160 | 1.0 | 14 | 5 | 7
62) O=C(NNC1CC(=O)N(c2ccc3c(c2)OCCO3)C1=O)c1ccc(Cl)cc1 (centres undefined)
→ -13 | / | 4751 | / | / | / | -19
63) CC(=O)NS(=O)(=O)c1ccc2c(c1)C(=O)c1cc(S(=O)(=O)NC(C)=O)ccc1-2
→ -11 | 5 | 3786 | 3.4 | 2 | 0 | -30
64) COc1ccccc1Cn1c(=O)oc2ccc(C)cc21
→ 2 | / | 3948 | / | / | / | -1
65) CN(C)S(=O)(=O)c1cccc(NC(=O)COC(=O)c2cccc(S(=O)(=O)N3CCc4ccccc4C3)c2)c1
→ -6 | 8 | 7652 | 11 | -2 | -2 | 8
66) COC(=O)C1=C(C)N(c2ccc(C(=O)OC)cc2)C(=O)C1
→ -7 | 10 | 7066 | 5.2 | 9 | 6 | -10
67) CCN(C[C@H]1N[C@@](CC)(C(=O)OC)[C@H]2C(=O)N(C)C(=O)[C@@H]12)C(=O)Nc1ccc(F)cc1
→ / | 1 | 3087 | 1.5 | -4 | -8 | -18
68) CCN1CCN(S(=O)(=O)c2ccc(Cl)c(C(=O)N(C)CC(=O)Nc3c(C)cccc3C)c2)CC1
→ / | 3 | 4072 | 0.7 | 15 | 36 | -14
69) CCC1(C)Cc2ccccc2-c2nc(NN)[nH]c(=O)c21 (centres undefined)
→ -4 | 1 | 3120 | 6.7 | -4 | 5 | 5
70) CC1(C)CC(=O)N(Cc2ccccc2)C(=O)C1
→ -1 | 6 | 2020 | 3.2 | -8 | 11 | -20
71) O=C(Cn1[nH]c(=O)c2ccccc2c1=O)Nc1ccc(-c2nnc3n2CCCCC3)cc1
→ -1 | 5 | 2459 | 5.4 | / | / | -2
72) O=C(O)/C(=C\c1cccc(F)c1)c1ccc(S(=O)(=O)N2CCCC2)s1
→ / | -4 | 5443 | 2.8 | 5 | 0 | -13
73) C[C@H](CO)N1C[C@H](C)[C@@H](CN(C)C(=O)NC2CCCCC2)Oc2c(NC(=O)C3CCCCC3)cccc2C1=O
→ / | 13 | 3325 | 1.8 | 5 | 9 | -21
74) COc1ccc(NC(=O)c2cccnc2SC)cc1S(=O)(=O)N1CCCCC1
→ -8 | -1 | 2208 | -1.6 | -9 | 9 | -20

# Compound activity: PubChem BioAssay, several laboratories
